# Compound activity: PubChem BioAssay, National Center for Advancing Translational Sciences (NCATS)
# PINK1 expr mod: modulators of PINK1 expression; PINK1 immunofluorescence, high-content cytometry, 24 h; Potency, µM (titrated, usually from 76.6 µM), inactives show at the top dose activation (PINK1 increase), hits mostly activators; hit rate 0.2% among 410,000; active = well fitted activation curve with a large enough effect; inconclusive = small, poorly fitted or top-dose-only effect; inactive = flat fitted curve, though single readings scatter; cell line not stated here;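 also: potency is read from the fitted curve at half-maximal effect; % of control where 0% means no effect; nearly all actives have a fitted effect of over 65% in size; a mitochondrial uncoupler was the plate control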
#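 Measures PINK1 amount and localization on or inside mitochondria by immunofluorescence. Stable cells get compounds at 5 concentrations for 24 hours before fixation and staining; CCCP controls included.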
# TRPML1 blocker: blocks the human TRPML1 channel; AID 624415; activity change, negative = inhibition, % (no concentration beside the values); Q9GZU1; hit rate 0.02% among 390,000; TRPML1-inducible cells, Ca2+ dye fluorescence, FDSS; active compounds read low; inhibition of EC80 agonist-evoked calcium signal; in the data active means activity change below about -50%; inconclusive means about -30% to -50%; inactive means above about -30%;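 also: stimulus is agonist 54-4 at its EC80 concentration; % is scaled to controls: 0 for no effect and ±100 for the full control effect; compound concentration not given in the record; the text of the record puts the active cut at -80%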
# Target sequence (Q9GZU1 whole entry, looked up): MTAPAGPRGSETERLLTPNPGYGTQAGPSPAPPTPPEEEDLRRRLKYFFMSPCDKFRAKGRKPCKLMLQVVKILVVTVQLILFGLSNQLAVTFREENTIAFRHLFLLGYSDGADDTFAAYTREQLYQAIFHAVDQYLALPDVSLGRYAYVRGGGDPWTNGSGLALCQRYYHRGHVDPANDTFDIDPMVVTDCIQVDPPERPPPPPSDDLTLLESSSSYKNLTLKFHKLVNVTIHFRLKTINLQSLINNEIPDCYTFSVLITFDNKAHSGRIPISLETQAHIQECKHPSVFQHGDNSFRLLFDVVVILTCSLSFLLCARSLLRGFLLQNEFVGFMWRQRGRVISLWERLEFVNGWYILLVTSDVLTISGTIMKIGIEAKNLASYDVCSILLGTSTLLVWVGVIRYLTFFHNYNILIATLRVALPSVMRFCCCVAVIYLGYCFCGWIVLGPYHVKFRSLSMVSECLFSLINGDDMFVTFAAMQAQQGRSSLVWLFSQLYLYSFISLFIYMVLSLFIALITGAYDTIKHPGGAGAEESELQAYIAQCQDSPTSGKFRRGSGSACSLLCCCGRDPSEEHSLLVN
#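 TRPML1-DL cells, Tet-induced overnight (~16 h, 37 °C) at 1,500 cells/well, were loaded with Ca8 no-wash dye plus quencher for 45-90 min at room temperature. Compounds were pinned during FDSS kinetic reading; agonist 54-4 at EC80 (4 uM final) then added.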
# Six1-Eya2 inh: inhibitors of human Six1/Eya2 interaction; Q15475+O00167; AlphaScreen GST-Six1/His-Eya2 binding, biochemical; active compounds read low; control for the full effect not named in the record; activity change, % (concentration not given with the values); hit rate 0.56% among 360,000; AID 651725; in the data active = activity change below about -65%; inconclusive = about -30% to -65%; inactive = above about -30%; also: % is scaled to controls: 0 for no effect and ±100 for the full control effect
#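 Compounds are tested against tagged Six1 and Eya2 proteins bridged by glutathione donor and nickel acceptor beads; after a one-hour incubation at 37 °C without light, AlphaScreen emission is recorded.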
# TRPML1 agonist: human mucolipin-1 channel agonism; Q9GZU1; TRPML1-expressing cells, Ca2+ dye fluorescence, FDSS; host cell line not named in the record; reference of the full effect not given here; activation, % (no concentration beside the values); hit rate 0.12% among 410,000; in the data active = activation above about 50%; inconclusive = about 30% to 50%; inactive = below about 30%; also: 0% is about no effect; the text of the record puts the active cut at 80%
#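 Calcium fluorescence on an FDSS kinetic reader gave the read-out. Tet-induced TRPML1-DL cells were plated overnight, dye-loaded (Ca8 with quencher, 45-90 min, room temperature, dark), then read 110 s after compound addition, and again 110 s after 4uM final 54-4 (EC80).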
# D2 ag: human D2 receptor agonism in beta-arrestin assay. P14416. DiscoveRx PathHunter D2 beta-arrestin, luminescence, 90 min; 100% = 57 uM dopamine signal. activation, % (test concentration not listed). hit rate 0.084% among 360,000; in the data active = activation above about 40%; inconclusive = about 15% to 40%; inactive = below about 15%; also: compound concentration not given in the record; the text of the record calls up to 30% inactive
# Target sequence (P14416 whole entry, looked up): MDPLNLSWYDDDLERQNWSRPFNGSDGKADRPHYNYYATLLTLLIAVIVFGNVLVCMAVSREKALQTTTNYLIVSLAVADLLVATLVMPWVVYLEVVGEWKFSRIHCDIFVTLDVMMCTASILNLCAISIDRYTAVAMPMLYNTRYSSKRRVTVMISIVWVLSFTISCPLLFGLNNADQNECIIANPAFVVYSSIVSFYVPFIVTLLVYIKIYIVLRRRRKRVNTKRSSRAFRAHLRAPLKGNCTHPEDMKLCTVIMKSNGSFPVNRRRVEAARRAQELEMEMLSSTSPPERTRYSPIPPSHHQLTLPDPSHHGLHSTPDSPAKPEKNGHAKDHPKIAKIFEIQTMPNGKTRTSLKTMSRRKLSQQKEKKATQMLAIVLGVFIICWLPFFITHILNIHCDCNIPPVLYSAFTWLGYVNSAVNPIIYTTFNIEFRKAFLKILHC
#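 DiscoveRx PathHunter D2 beta-arrestin cells (2,100/well) attached overnight, then compound-stimulated 90 min at 37 C in HBSS/10 mM HEPES/0.1% Tween-20 buffer; beta-galactosidase complementation read by luminescence after 1 h at ambient temperature. Dopamine 57 uM final (EC100) as control.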
# D2 potentiator: positive allosteric modulators of human D2 dopamine receptor; P14416; DiscoveRx D2 beta-arrestin cells, luminescence, 90 min; 100% = 57 uM dopamine signal; potentiation, % (concentration not given with the values); hit rate 0.23% among 360,000; AID 624464; active = potentiation of 50% or more; inconclusive = 30% to 50%; inactive = 30% or less;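 also: compound concentration not given in the record; tested on top of an EC20 dose of dopamine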
#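 PathHunter D2 cells, attached overnight at 37 deg C, received compound in DMSO plus dopamine at EC20 (50 nM final) for 90 min at 37 deg C. Beta-arrestin recruitment was read as luminescence after 1 h with detection reagent at ambient temperature.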
# * marks the source's active call; other numbers are inactive results; ? = inconclusive; . = no result given; & = joins results of further samples; [ ] = remark or other dose.
molecule	PINK1 expr mod	TRPML1 blocker	Six1-Eya2 inh	TRPML1 agonist	D2 ag	D2 potentiator
Cc1ccc(Cn2ccnc2SCC(=O)NC2CCCC2)cc1	0.5%&-1.6%	37&11	-3	-0.6&1.9	-3.8	-6
CCN1C(=O)C2(C(C#N)=C(N)Oc3n[nH]c(COC)c32)c2ccccc21 (stereo unspecified)	5.1%[38.3 µM]	-9	2	0.4	0.6	0
CCCCCC(=O)N1C[C@@H](n2cc(COC(=O)c3ccccc3)nn2)[C@H](O)C[C@@H]1c1ccccc1	1.3%	2	-6	0.9	-5.1	-7
CCN(CC)C(=O)c1[nH]cnc1C(=O)N[C@H](C)c1ccccc1	-0.2%	-2	5	-0.6	-1.2	-5
O=C1C(=O)N(CCN2CCOCC2)C(c2ccccc2)/C1=C(\O)c1ccc2c(c1)OCCO2 (stereo unspecified)	-1.7%	-4	1	0.0	-0.3	-1
CCn1c(SCC(=O)Nc2nc(-c3ccccc3)cs2)nc2c1c(=O)n(C)c(=O)n2C	3.2%	-11	-4	1.9	1.3	1
COc1ccc([C@@H]2[C@@H]3C(=O)N(C(C)(C)C)C(=O)[C@@H]3[C@]3(C)C(=O)N(c4ccccc4)C(=O)N23)cc1	2.0%	5	9	0.6	-2.9	-9
O=C(CN1CCN(C(=O)c2ccco2)CC1)Nc1ccc2c(c1)OCCO2	2.0%	-7	2	0.6	?	11
COc1ccc2nc(Cl)c(C#N)cc2c1	0.7%	-19	6	-0.5	2.2	-3
Cc1ccc(-n2c(=O)c(C#N)cc3c(=O)n4ccccc4nc32)cc1	6.7%	-16	3	-0.6	-3.8	-9
CCOC(=O)N1CCN(c2ccc([N+](=O)[O-])cc2)CC1	-1.0%	35	-3	2.3	4.3	-6
Cc1ccc(SCCC(=O)N2CCC(C)CC2)cc1	0.5%	16	1	-1.4	-1.5	-4
Cc1ccc(-c2csc(N(CCO)CCCn3c(C(F)(F)F)nc4cc(C(F)(F)F)ccc43)n2)cc1	16%	-23	-6	0.3	-2.4	-4
N#CCc1ccc(NC(=O)c2ccc(S(=O)(=O)N3CCOCC3)cc2)cc1	2.3%	-3	2	-0.2	0.4	-2
Cc1cc(C)n(C(=O)CCNC(=O)c2ccccc2Cl)n1	1.2%	8	0	0.6	-7.2	4
Clc1ccc2nc(Nc3ccccc3Cl)nc(-c3ccccc3)c2c1	1.4%	19	.	1.4	.	.
COCCCn1c(=O)c2sccc2n(Cc2ccccc2C)c1=O	2.2%	26	3	0.9	-1.9	-1
O=S(=O)(N/N=C1\CCCc2ccccc21)c1ccccc1	-0.2%	0	4	0.4	-0.4	-4
Cn1c(=O)c2c(nc(CN3CCC(C(N)=O)CC3)n2CCCc2ccccc2)n(C)c1=O	1.8%[38.3 µM]	7	-12	0.0	-3.4	-2
CCOC(=O)N1CCN(CC(=O)Nc2cc(OCC)ccc2OCC)CC1	-0.2%	7	0	-0.4	-2.4	-5
Cc1nc2ccc(NC(=O)c3ccc(S(=O)(=O)N4CCOCC4)cc3)cc2s1	16%	-7	6	-0.4	-0.8	-8
N#Cc1ccc(Oc2ccc(-c3cnc4ccccc4n3)cc2)cc1C#N	9.8%	-2	-2	1.3	1.6	1
O=C(CCC(=O)OCc1ccc([N+](=O)[O-])cc1)Nc1ccc(F)cc1	-0.4%	-1	-1	-0.2	-4.6	-7
O=C(/C=C/c1cccc(F)c1)NNC(=O)c1ccncc1	0.4%	-6	5	-0.2	6.9	11
Cc1ccc([N+](=O)[O-])cc1S(=O)(=O)Nc1ccc(-c2ccc(N3CCCC3)nn2)cc1	-1.0%	-5	-28	0.2	1.4	7
CC(C)C[C@H]1COc2cc(N3CCSCC3)ccc2S(=O)(=O)N1	-0.8%	.	-11	-0.9	.	.
CCN(CCCNC(=O)Cn1ncc2c3ccccc3n(C)c2c1=O)Cc1ccccc1	0.9%	9	.	2.3	.	.
O=C(NC(Cc1c[nH]c2ccccc12)c1nnc2n1CCCCC2)c1cccs1 (stereo unspecified)	1.4%[38.3 µM]	2	0	0.9	-3.4	7
COc1cccc(CN(C)C(=O)c2cccc(OC3CCN(C4CCCC4)CC3)c2)c1	-2.6%	1	0	0.2	-1.3	-19
COC(=O)c1c(NC(=O)c2ccc(S(=O)(=O)N3CC(C)OC(C)C3)cc2)sc2c1CCN(C)C2 (stereo unspecified)	7.9%	19	2	-0.6	-3.2	-25
COc1ccc(NC(=S)NCCCN2CCCC2=O)c(OC)c1	2.6%	12	3	0.5	3.4	-4
CC(C)CSc1oc(-c2ccco2)nc1S(=O)(=O)c1ccc(Br)cc1	-0.9%	-10	.	4.2	.	.
CCOC(=O)c1c(C)[nH]c(C(=O)/C(C#N)=C/c2ccc(OCC)cc2)c1C	6.2%	13	0	-0.5	-5.3	-15
COC(=O)Cn1c(=NC(=O)c2cc(-c3cccs3)nc3ccccc23)sc2cc(S(N)(=O)=O)ccc21	2.7%	-12	5	0.4	-7.6	-22
C[C@@H]1CN(C(=O)c2ccc(OC3CCN(S(=O)(=O)N(C)C)CC3)cc2)C[C@H](C)O1	0.8%	-2	1	0.0	-1.3	6
Cc1ccc(CNS(=O)(=O)c2c(C)[nH]c(C)c2C(=O)N2CCCCC2)cc1	1.3%	20	0	0.1	-2.0	2
COc1ccc(N2C(=O)CCC(C(=O)N3CCCCC3)C2c2ccc(F)cc2)cc1 (stereo unspecified)	-3.7%	2	-4	-0.5	-2.0	-11
CCOC(=O)N1CCN(C2=C(NS(=O)(=O)c3ccc(Br)cc3)C(=O)c3ccccc3C2=O)CC1	-0.8%	-9	?	-1.0	0.2	-11
Cc1cccc(NC(=O)CCN2CCOCC2)c1	-0.4%	19	6	0.8	-0.5	6
C=CCC(Nc1ccco1)c1ccccc1 (stereo unspecified)	-1.1%	2	-6	-1.0	-4.3	-6
O=C(O)c1cccc(Nc2ncnc3ccc(Br)cc23)c1	2.6%&-5.1%	-12&3	1	0.7&1.3	-3.6	-3
Cc1cccc(N(CC(=O)Nc2ccc(F)cc2)S(C)(=O)=O)c1	-4.5%	-5	1	-0.2	-0.7	7
O=C(c1cccs1)N1CCN(c2ccccc2)CC1	1.9%	26	-1	-0.2	-1.8	-4
Cc1ccc(C(=O)NNC(=O)c2csc(N3CCOCC3)n2)s1	-1.7%	-7	-1	-0.7	-5.3	0
Nc1cc(=O)[nH]c(SCC(=O)Nc2ccc(N3CCCCC3)cc2)n1	0.5%	12	3	-0.4	6.3	-1
CC1(Cc2ccccc2OC(F)(F)F)C(=O)Nc2ccc(OC(F)(F)F)cc21 (stereo unspecified)	9.8%	.	10	-0.1	6.5	-5
CC(=O)C1CCCN(C(=O)c2ccc3oc(CCc4ccccc4)nc3c2)C1 (stereo unspecified)	-2.0%	22	1	0.8	-5.7	-8
O=C(O)CC1(CC(=O)NCc2ccc(F)cc2)CCCCC1	2.9%	-12	27	-0.3	9.5	1
CN(Cc1ccc(Cl)s1)C(=O)CN1C(=O)N(C)C2(CCCCC2)C1=O	1.3%	-18	8	-0.1	-2.1	1
COc1ccc(NC(=O)CN(C)C(=O)c2cn(-c3ccccc3)nc2-c2ccc(F)cc2)cc1	0.1%	-11	-5	2.4	-0.5	-2

# Further results:
molecule	PINK1 expr mod	TRPML1 blocker	Six1-Eya2 inh	TRPML1 agonist	D2 ag	D2 potentiator
COc1ccc(-c2ccnc3c(C#N)cnn23)cc1	-1.0%	16	-4	1.3	-3.3	0
COc1ccc(Nc2nnc(-c3ccc(C)c(S(=O)(=O)N4CCOCC4)c3)c3ccccc23)cc1	7.0%	0	.	-0.7	.	.
CCCCNC(=O)CCCN1C(=O)CCn2nc(-c3cccn3C)cc21	-0.5%	21	.	0.7	.	.
CCCN1CCC(=O)N([C@H](CO)c2ccccc2)CC1	0.0%	51	1	-0.3&-0.2	-0.9	-24
N#Cc1ccc(CSc2nnc(NC(=O)CN3C(=O)C4CC=CCC4C3=O)s2)cc1 (stereo unspecified)	0.2%	57	0	-0.2	-0.5	1
Cc1cc(=O)c(C(=O)Nc2cccc(C(=O)NC3CC3)c2)nn1-c1ccccc1Cl	0.7%	-13	1	-0.4	0.8	-5
CC(Oc1ccc(S(=O)(=O)N2CCCC2)cc1[N+](=O)[O-])C(=O)NC(C)c1ccccc1 (stereo unspecified)	-0.7%	22	-5	1.3	2.0	-10
COc1cc(C(=O)Nc2ccc3c(c2)ncn3C)cc(OC)c1OC	9.0%	9	-12	-0.4	-5.4	0
CSc1ccc(/C=N/N2CCN(Cc3ccc(Cl)cc3)CC2)cc1	1.9%	-3	-14	-0.1	1.2	-14
N#C/C(=C\c1cccc(Cl)c1)C(=O)c1ccccc1	0.5%	19	1	2.6	-4.7	-16
CC(C)(C)[C@H]1C=C(C(=O)NCc2ccccc2)O[C@@H](OCCCCO)C1	1.0%	-4	0	-0.6	-3.2	-14
O=S1(=O)[C@H]2C[C@@H]3C=C[C@@]2(CN1Cc1cccc(Cl)c1)O3	2.7%	8	10	0.4&-0.8	-4.9	-6
Cc1ccc(NC(=O)CCc2c(C)nc3ncnn3c2C)cc1Cl	-0.4%	-20	.	-1.1	.	.
c1cc(CNC2=NCCCCC2)ccn1	-0.8%	-2	26	1.9	-2.4	-13
COC(=O)c1ccc(N2NC(=O)/C(=C/c3cc(OC)c(OC)c(OC)c3)C2=O)cc1	-2.1%	-5	-2	1.4	-6.9	-4
CS(=O)(=O)c1ccc(NC(=O)C2CC(=O)N(c3ccc4c(c3)OCCO4)C2)cc1 (stereo unspecified)	3.2%	20	1	-0.7	-4.7	-3
Cc1ccc(/C(N)=N/OC(=O)c2cccs2)cc1	-4.4%	76	15	0.5	?	77*
CCOC(=O)N1CCN(C(=O)CS(=O)Cc2nc(-c3cccc(C)c3)oc2C)CC1 (stereo unspecified)	3.0%	-6	21	0.2	-4.3	-4
COCCNC(=O)C[C@@H]1C[C@H]2c3cc(NC(=O)Nc4ccc(F)cc4)ccc3O[C@H]2[C@H](CO)O1	-1.9%	7	4	0.6	-4.7	-6
CC(C)Nc1nc(Cl)nc(N(C#N)CN2C(=O)c3ccccc3S2(=O)=O)n1	3.1%	45	1	1.8	-4.9	-24

# Some of the entries above in a different format:
# The line under a structure holds: PINK1 expr mod, TRPML1 blocker, Six1-Eya2 inh, TRPML1 agonist, D2 ag, D2 potentiator
Cc1ccc(CNS(=O)(=O)c2c(C)[nH]c(C)c2C(=O)N2CCCCC2)cc1
→ 1.3%, 20, 0, 0.1, -2.0, 2
COc1ccc(N2C(=O)CCC(C(=O)N3CCCCC3)C2c2ccc(F)cc2)cc1 (stereo unspecified)
→ -3.7%, 2, -4, -0.5, -2.0, -11
CCOC(=O)N1CCN(C2=C(NS(=O)(=O)c3ccc(Br)cc3)C(=O)c3ccccc3C2=O)CC1
→ -0.8%, -9, ?, -1.0, 0.2, -11
